# Assay outcomes from PubChem BioAssay.
# Ba CapD inh = Bacillus anthracis CapD inhibitors, primary screen, biochemical, fluorescence intensity; 140,000 tested, 0.23% active; purified CapD enzyme, fluorescence intensity read-out; hits give low values; some hits fall short of the stated cut; CapD gamma-glutamyltranspeptidase (Bacillus anthracis Ames Ancestor); AID 492967, 2010; z-score (concentration not given with the values);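 active = z-score under -4 in either of two replicates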;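 also: stock transfer was 100 nL into about 40 µL; score is relative to mean and spread of the plate; one replicate is shown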
# AID504770 = growth inhibition of E. coli YBA685, primary screen, V. cholerae RctB inhibitors; E. coli YBA685 rctB-dependent plasmid, OD600 growth, 3 h; hits give low values; z-score (no concentration beside the values); 130,000 tested, 0.27% active; AID 504770, 2011;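 active = z-score under -2 on both plates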;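 also: wells of about 30 µL received 100 nL stock; score is relative to mean and SD of the test wells; the first replicate is given; strong numbers were not always called active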
# The depositor's hits bear a star; x = not tested or not shown.
SMILES,Ba CapD inh,AID504770
Cc1ccccc1C1C2=C(CC(C)(C)CC2=O)OC2=C1C(=O)CC(C)(C)C2,0.3,x
CC(=O)C1=C(C)OC(N)=C(C#N)C12C(=O)Nc1ccc([N+](=O)[O-])cc12 (configuration not stated),-0.89,x
CO[C@H]1O[C@H](CO)C(O[C@@H]2OC(C(=O)O)[C@@H](O[C@H]3O[C@H](COS(=O)(=O)O)C(O[C@@H]4OC(C(=O)O)[C@@H](O[C@H]5O[C@H](CO)C(O[C@@H]6OC(C(=O)O)[C@@H](O[C@H]7O[C@H](COS(=O)(=O)O)C(O[C@@H]8OC(C(=O)O)=C[C@H](O)C8OS(=O)(=O)O)[C@H](O)[C@H]7NC(C)=O)[C@H](O)[C@H]6O)[C@H](O)[C@H]5NC(C)=O)[C@H](O)[C@H]4O)[C@H](O)[C@H]3NC(C)=O)[C@H](O)[C@H]2O)[C@H](O)[C@H]1NC(C)=O (some centres not stated),x,0.95
O=C(CSc1nnc(-c2ccncc2)n1-c1ccccc1)c1ccccc1,19,-0.1
CSc1ncccc1C(=O)N(Cc1ccccc1)C1CCS(=O)(=O)C1 (configuration not stated),x,0.4
COc1cccc(CN2CCN(C(=O)CC(C)C)CC2)c1,0.2,-1.1
COc1ccc2nc3oc(C(=O)NC4CCN(Cc5ccccc5)CC4)cc3cc2c1,7.3,-1.1
O=C(CN1C(=O)c2cccnc2Oc2ccc(Cl)cc21)Nc1ccc(F)cc1,8.4,1
CCOc1ccc2c(c1)C(C)=CC(C)(C)N2C(=O)C(C)N1C(=O)c2ccccc2C1=O (configuration not stated),-0.52,-0.2
Cc1cc(C)nc(-n2nc(C)cc2NC(=O)CNCc2ccccc2)n1,x,-1.4
C=CCN(CC=C)C(=O)CSC1=C(C#N)C(C)(C)C(C#N)C(=O)N1 (configuration not stated),x,-0.15
CN(C)CCN1C(=O)C(=O)/C(=C(/O)c2ccccc2)C1c1cccc(F)c1 (configuration not stated),0.065,x
O=C(c1ccccc1)c1cc(Br)ccc1O,0.14,0.65
CCC1(C)N([O-])C(C)=C(c2ccccc2)[N+]1=O (configuration not stated),-0.96,-1.1
COC(=O)c1cc(S(=O)(=O)N(CC(C)C)CC(C)C)c[nH]1,-0.52,-1.2
O=C(CN1CCN(Cc2ccc(Cl)cc2)C1=O)NCC1COc2ccccc2O1 (configuration not stated),-0.03,0.15
CCOC(=O)c1ccccc1NC(=O)C=C(C)C,3.1,-0.35
Cc1c(-c2ccccc2)cc2ccccn12,63,-0.2
CCN(CC)C(=O)C1C(=O)N(CCO)C2(C)CC1c1ccccc1O2 (configuration not stated),-0.65,x
CCCc1nc2sc3c(N(CCC)CCC)ncnc3c2c2c1COC(C)(C)C2,-0.065,x
COC(=O)c1ccc(CNCC2COc3ccccc3O2)o1 (configuration not stated),x,-0.5
O=S(=O)(Cc1nc(-c2ccc(Cl)cc2)cs1)c1ccc(Cl)cc1,0.06,-0.25
CCOC(=O)c1[nH]c2sc(C)c(C)c2c1N,-0.98,-0.1
COc1ccc(Br)cc1C1NC(=O)c2c(sc3c2CCCC3)N1 (configuration not stated),-0.14,x
CCOC(=O)c1cc(=O)cc(C(=O)OCC)o1,-0.51,1.6
# Additional structures
SMILES,Ba CapD inh,AID504770
Cc1cccc(NC(=O)c2cnc3sccn3c2=O)c1,-0.015,-0.1
Nc1ncnc(Nc2ccc(Cl)c(Cl)c2)n1,-0.33,x
O=C1Nc2ccccc2S/C1=C/c1ccc(C(=O)N2CCOCC2)cc1,-1.2,-1.1
Cc1nn(CCCC(=O)NC2CCCc3ccccc32)c(=O)c2nccn12 (configuration not stated),-0.19,0
O=C(CSc1nc2ccccc2n1CC(=O)N1CCCC1)N1CCCCC1,x,-0.15
COc1ccc(N2C(=O)/C(=C\C=C\c3ccccc3)SC2=S)cc1,-0.1,0.4
CCOC(=O)C1=CN(C(C)C)C=C(C(=O)OCC)C1c1cc(Br)c(OC)c(OCC)c1,27,x
CN(C)c1cc(C(F)(F)F)nc2c(Cl)c(C(C)(C)C)nn12,2,-0.8
COC(=O)c1ccc(CSc2nccn2C)cc1,0.32,-0.45
CCCN(CC1CC1)S(=O)(=O)c1c(C)c(C)cc(C)c1C,0.065,x
COc1cc(/C=N/NC(=O)c2csc(CS(=O)(=O)Cc3ccco3)n2)cc(OC)c1OC(C)=O,-1.3,x
Cc1cc(C)n(-c2ncccc2C(F)(F)F)n1,-0.17,-0.75
O=C(NC12CC3CC(CC(C3)C1)C2)C(F)(F)F,-0.17,2.4
COc1ccc(CN(C)C(=O)CN2C(=O)C3CC=CCC3C2=O)cc1OC (configuration not stated),x,-0.25
Clc1cc(Cl)cc(OCc2nc(-c3cc(-c4ccccc4)no3)cs2)c1,10,-0.45
CCOCC(=O)OCc1ccc(Cl)cc1,0.085,0.6
OC(COc1ccc(F)cc1)(c1ccccc1)c1ccccc1,-0.52,-0.9
CC1(C)C(=O)OC(c2c(F)c(F)c(F)c(F)c2F)C2(CCCCC2)C1=O (configuration not stated),0.13,-1.1
CCOC(=O)/C=C(\C)N1CCOCC1,x,-0.75
CCOC(=O)C(C#N)c1nc2ccccc2nc1N1CCN(C(=O)c2ccco2)CC1 (configuration not stated),x,0.2
CCCCn1c(=O)c2oc3ccccc3c2n(Cc2cc(C)ccc2C)c1=O,-0.075,0.1
CNCC(O)C(O)C(O)C(O)CO (configuration not stated),1.7,x
COc1ccc(-c2nn(CN3CCOCC3)c(=S)n2-c2ccccc2)cc1OC,0.7,-0.5
CC(C)(C)OC(=O)CN1c2cccc3cccc(c23)S1(=O)=O,x,-0.55
CC1CCN(C(=O)COC(=O)COc2ccccc2-c2ccccc2)CC1,-1.3,-0.55
# Additional results follow.
SMILES,Ba CapD inh,AID504770
Cn1c(=NC(=O)CCS(=O)(=O)c2ccc(F)cc2)sc2cc(F)ccc21,x,0.55
CC1CCP(=S)(N(C)C)O1 (configuration not stated),x,1.4
c1csc(-c2ccnc(SCc3ccc4nonc4c3)n2)c1,0.75,1.6
CN(C)CCNc1cc(N2CCN(C(=O)c3ccco3)CC2)c2noc3c2c1C(=O)c1ccccc1-3,-0.53,-0.35
CCOC(=O)C1=NN(c2ccccc2)C2(S1)c1ccccc1C(c1cc(C)ccc1C)=NN2c1ccccc1 (configuration not stated),-0.26,x
C/C(=N\Nc1cccc2cccnc12)C(C)(C)C,-0.27,0.25
COc1cc(OC)nc(-c2ccc(C(=O)N3CCN(C(c4ccccc4)c4ccccc4)CC3)cc2)n1,-0.6,x
CCOCNC(=O)Nc1ccc(Cl)cc1,x,0.1
COC(=O)c1nc2nc(C)cc(=O)n2[nH]1,-0.42,x
COC(=O)c1csc(S(=O)(=O)N=S(C)(=O)c2cccs2)c1OC (configuration not stated),1,-0.35
COc1cc(NC(=O)C2CCCN2C(=O)C2CCC(C)CC2)cc(OC)c1OC (configuration not stated),-0.11,1.4
c1ccc(-c2noc(CC3CCCCC3)n2)nc1,0.87,-0.3
COc1ccc(-c2nonc2NC(=O)c2ccccc2)cc1,0.36,0
O=C(NCc1cccnc1)c1ccc2c(=O)n(-c3cc(C(F)(F)F)ccc3Cl)c(=S)[nH]c2c1,-0.28,x
CC12CN3CC(C)(CN(C1)C3c1ccccc1)C2O (configuration not stated),-0.005,-0.75
O=C1/C(=C\Nc2ccc(Cl)cc2)S(=O)CN1c1ccc(Cl)cc1 (configuration not stated),0.22,x
c1cc(-c2nnn(C3CCCCC3)c2NC2CCCCC2)[nH]n1,-0.02,-0.95
CCOC(=O)Cc1ccc(NC(=O)C(F)(F)C(F)F)cc1,-0.62,-0.65
COc1ccc(CNC(=O)C2=C(C(=O)O)CCCC2)cc1,x,0.2
CC(C)c1ccc2nc(SCC(=O)N3CCCC3)c(C#N)cc2c1,x,0.05
CC(CC(=O)O)n1nnc2ccccc21 (configuration not stated),0.2,-1
COc1ccc(-n2cnc3cc(C(=O)N4CCOCC4)ccc32)cc1,-1.9,-0.1
CCOC(=O)CN1N=C(c2ccc(Cl)cc2)CCC1=O,-0.23,-1.1
O=C(CN1CCCC1)N1c2ccccc2C=Cc2ccccc21,0.42,-0.35
CC(C)c1cc(N2CCCC2)n2c(nc3ccccc32)c1C#N,x,-0.2
# Next records.
SMILES,Ba CapD inh,AID504770
CCOC(=O)C1=C(C)N=c2s/c(=C\c3ccc(O)c(OCC)c3)c(=O)n2C1c1ccc(N(C)C)cc1 (configuration not stated),-0.28,x
CC(C#N)(NC(=O)CN1CCN(c2cccc(C(F)(F)F)c2)CC1)C1CC1 (configuration not stated),x,-0.45
Cc1ccc(OC(=O)c2cc(S(=O)(=O)N3CCCC3)ccc2C)cc1C,0.28,0.5
N#CC1=C2SCN(C3CCCCC3)CN2C(=O)CC1c1ccccc1 (configuration not stated),-1,0.5
COc1ccc(CCN=C(C)C2=C(O)COC2=O)cc1OC,x,-0.95
COc1ccc(Cl)c(NCCC(=O)O)c1,-0.095,0.05
O=C(NCc1ccccc1Cl)C1=CSCCO1,0.31,1.4
CN(C)/C=C1/C(=O)c2sccc2N(C)S1(=O)=O,0.11,-0.05
CCSC1=NC2(CCN(C(=O)Nc3ccccc3)CC2)N=C1c1ccccc1,-0.34,0.15
Cc1cccc(NC(=O)C(CC(C)C)NS(=O)(=O)c2ccc3c(c2)oc(=O)n3C)c1 (configuration not stated),-2.7,0.2
O=C(NCCN1CCOCC1)c1ccc(-n2cc(-c3ccc(Cl)cc3)cn2)cc1,0.17,x
O=C(CSc1nnc2c(n1)-c1cccc3cccc-2c13)Nc1ccccc1Br,0.35,x
CNS(=O)(=O)c1cccc(C(=O)NCCCn2nc(C)cc2C)c1,x,-0.35
CCCN(C(=O)Cc1coc2cc(OC)ccc12)C1CCS(=O)(=O)C1 (configuration not stated),x,-0.35
CCc1noc(C)c1C(=O)OCC(=O)c1ccc2ccccc2c1,x,-0.6
CS(=O)(=O)N1CCCC(C(F)(F)F)C1 (configuration not stated),x,0.45
NNC(=O)c1sccc1N,0.71,x
O=C(COC(=O)c1ccccc1O)NC12CC3CC(CC(C3)C1)C2,0.36,-0.2
Cc1ccccc1C(=O)Nc1ccccc1,0.68,-0.05
CCc1ccc(NC(=O)CSC2=C(C#N)C(c3ccco3)C(C(N)=O)=C(C)N2)cc1 (configuration not stated),2.5,-0.25
COc1ccc(-c2nc(-c3c4ccccc4c(Cl)c4ccccc34)[nH]c2-c2ccc(OC)cc2)cc1,-0.36,x
CC(=O)c1cccc(N2C(=O)/C(=C/c3ccc(Cl)cc3)C=C2c2ccccc2)c1,0.47,x
Cc1ccc(C)c(Nc2nc3nonc3n3cnnc23)c1,-0.01,x
O=C(NCc1ccccc1)c1ccc(C2SCC(=O)N2Cc2ccccc2)cc1 (configuration not stated),0.02,x
CC1CCCCN1C(=O)c1cnc2n(c1=O)CCS2 (configuration not stated),x,-2.1
# Next part
SMILES,Ba CapD inh,AID504770
C#CCn1cc(/C=N\NC(=O)COc2cccc3cccnc23)c2ccccc21,0.16,2.9
Cc1cc(C)n(/N=C/c2ccccc2O)c(=O)c1,-0.54,-1.5
CC1(C2(C)OCCO2)OCCO1,0.42,0.25
COC(=O)c1c(C)n(-c2ccc(OC)cc2)c2ccc(O)cc12,2.6,-0.05
COc1ccc(OC)c(NC(=O)CC(Cc2ccccc2OC)C(=O)O)c1 (configuration not stated),0.01,-0.65
CC(NC(=O)c1cccs1)c1ccc(S(C)(=O)=O)cc1 (configuration not stated),-0.05,x
OC(COc1ccc(Cl)cc1Cl)Cn1ccnc1 (configuration not stated),-0.55,-0.9
Clc1nc(NCc2cccnc2)nc(N2CCOCC2)n1,0.73,-0.6
CCCCC1(COC(=O)Nc2cccc(Cl)c2)C(=O)N(c2ccccc2)N(c2ccccc2)C1=O,0.005,-0.85
O=C1NC(=O)N(c2cccc(Cl)c2)C(=O)/C1=C/c1ccc(N2CCCCC2)o1,-0.25,x
Cc1cccc(OCC(=O)NC2CCCC2)c1,x,-0.55

# Structures above that have fluorine:
SMILES,Ba CapD inh,AID504770
O=C(CN1C(=O)c2cccnc2Oc2ccc(Cl)cc21)Nc1ccc(F)cc1,8.4,1
CN(C)CCN1C(=O)C(=O)/C(=C(/O)c2ccccc2)C1c1cccc(F)c1 (configuration not stated),0.065,x
CN(C)c1cc(C(F)(F)F)nc2c(Cl)c(C(C)(C)C)nn12,2,-0.8
Cc1cc(C)n(-c2ncccc2C(F)(F)F)n1,-0.17,-0.75
O=C(NC12CC3CC(CC(C3)C1)C2)C(F)(F)F,-0.17,2.4
OC(COc1ccc(F)cc1)(c1ccccc1)c1ccccc1,-0.52,-0.9
CC1(C)C(=O)OC(c2c(F)c(F)c(F)c(F)c2F)C2(CCCCC2)C1=O (configuration not stated),0.13,-1.1
Cn1c(=NC(=O)CCS(=O)(=O)c2ccc(F)cc2)sc2cc(F)ccc21,x,0.55
O=C(NCc1cccnc1)c1ccc2c(=O)n(-c3cc(C(F)(F)F)ccc3Cl)c(=S)[nH]c2c1,-0.28,x
CCOC(=O)Cc1ccc(NC(=O)C(F)(F)C(F)F)cc1,-0.62,-0.65
CC(C#N)(NC(=O)CN1CCN(c2cccc(C(F)(F)F)c2)CC1)C1CC1 (configuration not stated),x,-0.45
CS(=O)(=O)N1CCCC(C(F)(F)F)C1 (configuration not stated),x,0.45

# Some of the compounds tested. The share of hits here may be higher or lower than overall.
